Sa growth inh: S. aureus growth inhibition; relative growth, % (no concentration beside the values); 170,000 compounds, 0.53% hits; S. aureus RN4220 growth, OD600, 20 h, 42 °C; hits give low values;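 active means growth at 42 °C up to 50% and 20 or more points under that at 30 °C, or under 10% at both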;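 further: 300 nL library stock went into each well; scaled to the means of positive and negative controls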
GIV-Gai inh: blocks GIV peptide binding to rat Galpha-i3; P08753; Galpha-i3/FITC-GIV peptide fluorescence polarization, 90 min; hits give low values; scaled: aluminum fluoride 0%, vehicle 100%; percent of control (FP), % (test concentration not listed); 210,000 compounds, 0.42% hits; AID 1224905;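 active means replicate mean at 85% of control or lower, very high polarization wells dropped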;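 further: wells of about 15 µL received 100 nL stock; the first replicate is given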
Target sequence (P08753 whole entry, looked up): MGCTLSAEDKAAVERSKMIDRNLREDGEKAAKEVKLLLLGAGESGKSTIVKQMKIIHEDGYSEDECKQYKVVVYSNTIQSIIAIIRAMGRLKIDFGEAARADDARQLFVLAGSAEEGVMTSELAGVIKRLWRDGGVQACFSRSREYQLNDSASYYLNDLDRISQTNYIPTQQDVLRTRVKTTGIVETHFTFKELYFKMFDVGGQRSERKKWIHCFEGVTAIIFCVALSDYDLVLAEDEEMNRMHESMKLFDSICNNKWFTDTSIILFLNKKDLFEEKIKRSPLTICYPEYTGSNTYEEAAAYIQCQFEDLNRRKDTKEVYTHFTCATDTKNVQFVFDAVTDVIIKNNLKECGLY
HCMV UL50-53 inh: cytomegalovirus nuclear egress complex inhibition. HTRF UL50-UL53 interaction, normalized percent inhibition. inhibition, % (no concentration beside the values). 190,000 compounds, 0.15% hits. AID 1918969;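 active means both replicates at 50% or more, plus weaker picks with an unusually low signal ratio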;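 further: stock transfer was 100 nL into about 20 µL; 0% = negative control wells and 100% = wells with untagged competitor protein; inactives centre near -12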
Sa growth inh second temp: second read-out of Sa growth inh, no call of its own (marks repeat the call); relative growth, %; measured here: growth at 30 °C;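 optical density after 20 h as mean of two plates; 100% = untreated growth and lower means inhibition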
Numbers without * were called inactive; . = no result given; & = joins results of further samples.

Second line of a record – Sa growth inh, Sa growth inh second temp, GIV-Gai inh, HCMV UL50-53 inh
COc1ccc(CN(CCC(c2ccccc2)c2ccco2)C(C)=O)cc1 (stereo unspecified)
→ 89, 67, 102, .
O=C1NC(=O)C(=C2CCCCC2)S1
→ 73, 25, ., -26
CCOC(=O)c1c(Sc2ccccc2)cnn1C(=O)Nc1cccc(Cl)c1
→ 76, 64, 98, -35
c1ccc(Nc2nc3ccccc3n3nnnc23)cc1
→ 76, 73, 118, -6
CCc1ccccc1NC(=O)CSc1nc2c(c(=O)n(C)c(=O)n2C)n1C
→ 84, 84, ., -12
Cc1ccc(C)c(N2CCN(C(=O)c3ccc(Cn4c(=O)c5cccn5c5cccnc54)cc3)CC2)c1
→ ., ., 100, 18
CC(C)c1nc2ccccc2n1CCOc1ccccc1
→ 81, 89, ., -4
C=CCSc1nnc2c(n1)OC1(CCCC1)Nc1ccccc1-2
→ 92, 95, 101, 2
Cc1ccc(N2CCN(C(=O)c3c4c(nc5ccccc35)C(=O)N(C3CCCCC3)C4)CC2)c(C)c1
→ 89, 84, 95, .
c1cncc(-c2nc(NCCN3CCOCC3)c3ccccc3n2)c1
→ 98, 89, ., -8
Cc1cc(C)c(COc2ccc3c(c2C)OC(C)(C)CC3=O)c(C)c1
→ 98, 84, 106, -25
CCCCSc1nnc2c(n1)OC(c1ccc(OCC(=O)O)cc1)Nc1ccccc1-2 (stereo unspecified)
→ ., ., 110, -26
O=C(CSc1n[nH]c(-c2ccccc2)n1)c1ccc(Cl)cc1
→ 111, 85, 101, -3
CCOc1ccccc1C(=O)N(CC#N)CC#N
→ 87, 95, ., -19
CC1(C)Oc2[nH]c(=O)[nH]c(=O)c2C2c3ccccc3OCC21 (stereo unspecified)
→ 108, 94, 96, 3
Cc1cc(C)c(NC(=O)CC#N)c(C)c1
→ 84, 97, ., 0
Cc1ccc(C2N[C@@H](C(=O)O)C(C)(C)S2)cc1 (stereo partly specified)
→ 98, 94, 109, -22
NC(=O)CSc1nc2c(sc3ccccc32)c(=O)n1CCc1ccccc1
→ 111, 100, 105, 0
CCC(=O)Oc1ccc2[nH]c(C)c(C)c2c1
→ 84, 84, 122, -24
CN(Cc1ccccc1)S(=O)(=O)c1ccc(-c2nc(C#N)c(N3CCCC3)o2)cc1
→ ., ., 96, -5
Cc1ccc(C)c(CSc2cn(CC(=O)N3CCCCCC3)c3ccccc23)c1
→ 102, 84, 107, .
Cc1ccc(N(CC(=O)Nc2ccc(F)cc2)S(=O)(=O)N2CCCC2)cc1
→ 98, 87, 103, -2
CCOC(=O)C1=CN(C2CCCC2)C=C(C(=O)OCC)C1c1ccccc1C
→ 135, 92, 104, -23
Cc1cc(C)cc(NC(=O)CSc2nc3sc4c(c3c(=O)[nH]2)CCCC4)c1
→ 89, 99, 107, .
CCCCC(=O)N(c1ccc2oc(C)c(C(C)=O)c2c1)S(=O)(=O)c1ccc(F)cc1C
→ 94, 93, 99, -12
O=c1[nH]c(-c2cc(Br)cs2)nc2ccccc12
→ 103, 87, 97, .
COC(=O)C(C)Sc1nc2ccsc2c(=O)n1Cc1ccccc1 (stereo unspecified)
→ 92, 85, ., 9
O=C1C(C=NCc2cccs2)=C(O)c2ccccc21
→ 88, 78, 105, -20
CCOC(=O)C1CCN(C(=O)c2ccccc2N(C)S(C)(=O)=O)CC1
→ 106, 110, 100, 14
COc1ccc(-c2cc3c(=O)n(CC(=O)Nc4cccc(C)c4C)ncn3n2)cc1
→ ., ., 98, -4
Cn1/c(=N/NC(=O)CCc2ccc(S(=O)(=O)N3CCOCC3)cc2)sc2ccccc21
→ 90, 86, ., -13
N#CC1(Nc2cccc(C(F)(F)F)c2)CCCCCC1
→ 85, 89, 101, -11
Cc1cc(NS(=O)(=O)c2ccc(F)c(Cl)c2)no1
→ 97, 86, 98, 4
Cc1cc(N2CCN(C)CC2)nc(SCC2COc3ccccc3O2)n1 (stereo unspecified)
→ 102, 85, ., -17
COc1ccc(C2CC(=O)C3=C(C2)NC(C)=C(C(=O)OC(C)C)C3c2cc3c(cc2Cl)OCO3)cc1 (stereo unspecified)
→ ., ., 106, 10
Cc1cc2nnc(SCC(=O)Nc3cc(Cl)ccc3Cl)n2c2ccccc12
→ ., ., 99, 7
CCc1ccc2c(c1)-c1ccccc1S(=O)(=O)N2CC(=O)NCC(C)C
→ ., ., 100, -5
CCN(CC)c1ncc2c(NCc3ccccc3)nc(SCc3ccccc3)nc2n1
→ 98, 79, 99, -8
O=C(Nc1ncccn1)c1cc(-c2ccc(F)cc2)nc2ccccc12
→ 97, 69, ., -74
CCn1c2ccccc2c2cc(C3C(C(=O)OC)=C(C)NC4=C3C(=O)CC(c3ccco3)C4)ccc21 (stereo unspecified)
→ 99, 94, 111, 25
CNC(=O)/C=C1\NC(C)(C)Cc2c1ccc1ccccc21
→ 91, 86, 95, -27
Cc1[nH]c(=O)[nH]c(=O)c1CSCC(=O)OCC(=O)Nc1nc2c(s1)C(=O)CC(C)(C)C2
→ ., ., 100, 6
O=C(Cc1ccc(NC(=O)N2CCCCc3ccccc32)cc1)Nc1cccc(Cl)c1
→ ., ., 100, -22
O=c1oc(-c2cccc(Cl)c2)nc2ccccc12
→ 93, 104, 106, -3
O=C(COC(=O)Cn1cnc2ccccc21)Nc1c(F)cccc1F
→ 108, 85, ., -29

(further entries)
Short keys: A = Sa growth inh; B = Sa growth inh second temp; C = GIV-Gai inh; D = HCMV UL50-53 inh
SMILES: FC12CC3CC(F)(CC(C1)C3=C(C(F)(F)F)C(F)(F)F)C2
  A: 83; B: 94; C: .; D: -10

SMILES: O=C(Nc1ccc2nc(SCC(=O)N3CCOCC3)sc2c1)c1ccc(Cl)cc1Cl
  A: 77; B: 68; C: .; D: -6

SMILES: COc1ccc(CCNC(=O)CN2CCOc3ccccc32)cc1OC
  A: 101; B: 89; C: 110; D: 6

SMILES: COc1ccc2c(c1)c1c(c(=O)n(-c3ccc(F)c(Cl)c3)c(=O)n1CC(N)=O)n2C
  A: 118; B: 88; C: 109; D: .

SMILES: Cc1ccccc1C(=O)NCC(c1ccc(N(C)C)cc1)N1CCCC1 (stereo unspecified)
  A: 92; B: 88; C: 101; D: .

SMILES: CCCCNC(=O)Cc1c(C)nc2nc(-c3ccc(C(C)(C)C)cc3)nn2c1C
  A: .; B: .; C: 111; D: -2

SMILES: CCCCOc1ccc(C(=O)NCC(c2ccc(Cl)cc2)N2CCOCC2)cc1 (stereo unspecified)
  A: 106; B: 84; C: 102; D: -26

SMILES: CN1CCN(CCNc2nc(-c3ccccc3F)no2)CC1
  A: 100; B: 88; C: 103; D: -12

SMILES: CCOCCn1ccc2c(OCC(=O)NC3CCCCC3)cccc2c1=O
  A: 93; B: 87; C: 104; D: -37

SMILES: CCCCN(C)C(=O)c1coc(=O)c2ccccc12
  A: 92; B: 78; C: 102; D: 0

SMILES: O=C(O)CCCN1C(=O)c2ccccc2Sc2ncccc21
  A: 94; B: 91; C: 103; D: -14

SMILES: CC(C)n1ncc2c(C(=O)Nc3cccc4ncccc34)cc(C3CC3)nc21
  A: 75; B: 79; C: .; D: -27

SMILES: O=C(CSc1nc2ccccc2o1)NCC(F)(F)F
  A: 98; B: 87; C: .; D: -24

SMILES: COc1ccc(-n2nnnc2-c2cnc(N)nc2C(F)(F)F)cc1
  A: 97; B: 93; C: 102; D: -20

SMILES: CC1=C(C)[N+](=O)C2(O)CCCCC2(C)N1[O-] (stereo unspecified)
  A: 92; B: 88; C: 101; D: -18

SMILES: CC(C)=CCS(=O)(=O)c1ccccc1
  A: 101; B: 101; C: .; D: 8

SMILES: Cc1noc(C)c1CSCC(=O)N1CCSC1=Nc1cccc(Cl)c1C
  A: 112; B: 70; C: .; D: -28

SMILES: Cc1ccccc1NC(=O)Nc1cccs1
  A: 95; B: 77; C: 110; D: -29

SMILES: OC1=CONN1c1cccc2ncccc12
  A: 91; B: 92; C: 99; D: .

SMILES: COC(=O)C(Cc1cc(Cl)ccc1Cl)SC#N (stereo unspecified)
  A: 19; B: 0; C: .; D: -13

SMILES: Cc1cc(C)cc(C(=O)n2nc(C)c(S(=O)(=O)N3CCCCCC3)c2C)c1
  A: 91; B: 100; C: 111; D: .

SMILES: CCn1c(C(=O)NCc2cccc(Br)c2)cc2oc3ccccc3c21
  A: 103; B: 85; C: 103; D: 17

SMILES: Cc1ccc(SCC(=O)Nc2nc(-c3cccs3)cs2)cc1
  A: 89; B: 92; C: .; D: -15

SMILES: COc1ccc(NC(=O)NCCn2nnc3cc(S(=O)(=O)N(C)C)ccc32)cc1
  A: 92; B: 95; C: 104; D: .

SMILES: Cc1cccc(-c2ccc(Nc3cccc(C(=O)NC4CCCC4)c3)nn2)c1
  A: .; B: .; C: 106; D: 0

SMILES: NC(=O)CCc1c[nH]c2ccccc12
  A: 96; B: 104; C: 99; D: -4

SMILES: CC(OC(=O)c1ccc(NS(=O)(=O)c2cccs2)cc1)c1nc2scc(-c3cccs3)c2c(=O)[nH]1 (stereo unspecified)
  A: 74; B: 90; C: .; D: 10

SMILES: CC(=O)N1CCN(C(=O)c2cc(C)oc2C)CC1
  A: 93; B: 91; C: .; D: -28

SMILES: CC(C(=O)OCc1ccc(F)cc1)N1C(=O)c2ccccc2C1=O (stereo unspecified)
  A: 114; B: 91; C: .; D: -3

SMILES: Cc1ccc(-c2cc(=O)[nH]c3ccccc23)cc1
  A: 91; B: 93; C: .; D: -8

SMILES: O=C1CC(c2ccc(C3=NN(c4ccccc4)C(=O)C3)cc2)=NN1c1ccccc1
  A: .; B: .; C: 108; D: 4

SMILES: CC(C)NC(=O)Cn1ncc2c3ccccc3n(Cc3ccccc3)c2c1=O
  A: 90; B: 88; C: 99; D: 2

SMILES: CCOc1ccccc1CNC(=O)C1CCN(C(=O)N2CC(CC)Oc3ccc(C)cc32)CC1 (stereo unspecified)
  A: 104; B: 89; C: 107; D: -9

SMILES: O=c1oc2cc(O)ccc2cc1-c1ccc(F)cc1
  A: 111; B: 100; C: 110&108; D: -23&-60

SMILES: O=C(O)c1cc(O)c(O)c(O)c1
  A: 98; B: 87; C: .; D: -20

SMILES: Cc1ccc(Sc2ccc(C(=O)O)cc2NC=O)cc1
  A: 105; B: 75; C: 101; D: .

SMILES: CCn1c(-c2ccccc2)c(C(=O)Cn2cc(C)sc2=N)c2ccccc21
  A: 93; B: 72; C: .; D: 0

SMILES: CC(C)n1c(NCc2ccc(N(C)C)cc2)nc2ccccc21
  A: 95; B: 96; C: 107; D: -2

SMILES: FC(F)(F)c1cnc(N2CCc3ccccc3C2)c(Cl)c1
  A: 78; B: 103; C: .; D: -8

SMILES: O=C(CNc1c2ccccc2nc2ccccc12)NC(Cc1c[nH]c2ccccc12)C(=O)O (stereo unspecified)
  A: .; B: .; C: 102; D: -66

SMILES: CCCn1c(=O)c2sccc2n2c(SCC(=O)Nc3cc(Cl)ccc3OC)nnc12
  A: .; B: .; C: 108; D: -19

SMILES: Cc1nc(SC(C(=O)c2ccccc2)c2ccccc2)nc2ccccc12 (stereo unspecified)
  A: 81; B: 88; C: 100; D: .

SMILES: NC(=S)NC1CCCC1
  A: 95; B: 91; C: .; D: -6

SMILES: COC(=O)Cn1ncc(Cl)c(Cl)c1=O
  A: 90; B: 83; C: .; D: -70

SMILES: Cc1cccc(C)c1NC(=O)CO/N=C/c1ccccc1O
  A: 95; B: 88; C: .; D: 5

SMILES: O=C(Oc1ccc(OC(F)(F)F)cc1)C1=Cc2cc(Cl)ccc2OC1
  A: 117; B: 90; C: 105; D: 4

SMILES: CC(=O)NC(=O)c1cc2cc(Cl)ccc2oc1=Nc1cccc(C(F)(F)F)c1
  A: .; B: .; C: 105; D: 2
